# Hsc70 ATP site: small molecules displacing fluorescent ligand from Hsc70 – biochemical, fluorescence polarization, primary screen (AID 568); Hsc70 fluorescence polarization, probe displacement; higher % means a stronger effect; strong numbers were not always called active; displacement, % at 20 µM; hits with a dose series show IC50 in µM; 83,000 tested, under 10 active;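 active means displacement above 50% without optical interference and an IC50 on retest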;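 further: ATPase domain with a fluorescein-tagged ATP probe; 0% = vehicle and 100% = excess ADP; read after one hour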
# WNV NS2B-NS3 inh: blocks West Nile virus NS2B-NS3 protease activity. 65,000 compounds, 0.18% hits. WNV NS2B-NS3 protease, fluorogenic substrate Ex360/Em465; active compounds read low. z-score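 (tested at a level between 10 and 100 µM)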;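 active means z-score at -3 or under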;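 further: score is relative to mean and spread of the compound wells of a plate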
# Target sequence (P06935 1371-1501 limits assumed): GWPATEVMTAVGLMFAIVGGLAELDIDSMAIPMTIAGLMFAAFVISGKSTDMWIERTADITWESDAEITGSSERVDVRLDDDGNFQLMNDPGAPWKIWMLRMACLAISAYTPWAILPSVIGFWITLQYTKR
# Target sequence (P06935 1502-1679 limits assumed): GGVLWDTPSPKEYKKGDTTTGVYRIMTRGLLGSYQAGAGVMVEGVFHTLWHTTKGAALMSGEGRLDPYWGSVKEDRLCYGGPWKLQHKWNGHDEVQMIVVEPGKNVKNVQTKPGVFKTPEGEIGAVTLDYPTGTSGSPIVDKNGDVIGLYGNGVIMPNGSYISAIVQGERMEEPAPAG
# MT1-MMP reporter: inhibitors of MT1-MMP promoter transcription, cell-based, luciferase reporter, luminescence (AID 618) | 87,000 compounds, 0.62% hits | MT1-MMP promoter luciferase reporter cells, luminescence | calls from a first round at 10 µM; hits with a dose series show EC50 in µM;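 active means over half of the reporter light lost at 10 µM or EC50 under 50 µM; inactive means the rest and hits that failed the dose series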;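 further: actives suppress MT1-MMP promoter-driven transcription so potencies describe inhibitors; HT1080 fibrosarcoma cells; overnight exposure; toxic or luciferase-blocking compounds were not removed from the actives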
# * marks the source's active call; other numbers are inactive results; i = inactive; / = not tested or not shown.
SMILES,Hsc70 ATP site,WNV NS2B-NS3 inh,MT1-MMP reporter
CCNc1nc(Oc2ccc(=O)n(C)n2)nc(N2CCOCC2)n1,1.1%,-0.17,i
Cc1cc2cc(CNC(=O)c3ccc4c(c3)OCO4)ccc2n1C,-1.0%,-1.5,i
CCc1nc(N)c(C#N)c(-c2ccc(F)cc2)c1C,-2.0%,/,i
Cn1cc(-c2nc3ccccc3[nH]2)c2ccccc21,-2.5%,0.11,i
CCCCn1c(SCC(=O)Nc2cccc(OC)c2)nc2ccc(N3CCOCC3)cc2c1=O,1.8%,-0.95,i
Cc1cc(-c2nnco2)c(C)n1-c1ccccc1,-2.4%,0.34,i
CCC(=O)Nc1ccc(-c2nc(-c3ccccc3)n(CC(=O)N3CCCCC3)n2)cc1,1.2%,0.02,i
COc1ccc(CN2CCN(C(=O)c3cccs3)CC2)c(OC)c1OC,-3.5%,1.6,i
CC(C)(C)NC(=O)Cn1ccc(=N)c2ccccc21,-2.2%,0.2,i
N#CC1=C(SCC(=O)NC23CC4CC(CC(C4)C2)C3)NC(=O)C(C#N)C12CCCCC2 (stereo unspecified),-2.5%,0.55,i
Cc1cc(Cl)ccc1OCC(=O)N1C(C)CCCC1C (stereo unspecified),7.0%,0.0015,i
COCc1cc(C)nc(SCC(=O)Nc2ccc(C)c(C)c2)c1C#N,2.1%,-0.02,i
CCCSC1=C(C#N)C(c2cc(OC)ccc2OC)CC(=O)N1 (stereo unspecified),2.0%,-0.44,i
O=C1NC2c3ccccc3C(=O)N2c2c1cnn2-c1ccccc1 (stereo unspecified),1.6%,0.06,i
CN(Cc1ccco1)C(=O)c1ccc(N2CCCC2=O)cc1,-3.7%,0.66,i

# Profiles, looked up by structure. Order of screens: Hsc70 ATP site | WNV NS2B-NS3 inh | MT1-MMP reporter
# CC(C)(C)NC(=O)Cn1ccc(=N)c2ccccc21 is listed with -2.2% | 0.2 | i
# CCC(=O)Nc1ccc(-c2nc(-c3ccccc3)n(CC(=O)N3CCCCC3)n2)cc1 is listed with 1.2% | 0.02 | i
# COCc1cc(C)nc(SCC(=O)Nc2ccc(C)c(C)c2)c1C#N is listed with 2.1% | -0.02 | i
# CCCCn1c(SCC(=O)Nc2cccc(OC)c2)nc2ccc(N3CCOCC3)cc2c1=O is listed with 1.8% | -0.95 | i

# Further structures
SMILES,Hsc70 ATP site,WNV NS2B-NS3 inh,MT1-MMP reporter
Cc1cc(N2CCC3(CC2)OCCO3)n2nc(C)c(-c3ccc(Cl)cc3)c2n1,-4.8%,-0.06,i
C/C=C/c1ccc(OCCCNC2CCCC2)c(OC)c1,0.5%,/,i
O=C(C1CCN(C2CC(=O)N(c3ccc(Cl)cc3)C2=O)CC1)N1CCOCC1 (stereo unspecified),3.3%,-0.51,i
CCOc1ccc(N=C2NC(=O)C(CC(=O)O)S2)cc1 (stereo unspecified),-4.7%,-0.78,i
CCn1c(C(C)NC(=O)c2cccc(C)c2)nc2ccccc21 (stereo unspecified),7.3%,2.3,i
Cc1ccccc1C(OCCN(C)C)c1ccccc1 (stereo unspecified),-3.8%,0.68,i
O=C1NCCN1Cc1ccccc1,3.8%,/,i
O=C(Oc1ccccc1)c1c(Cl)cccc1P(=O)(O)O,0.2%,-0.12,i
CCCNc1c(N)n(-c2ccccc2)c(=O)[nH]c1=O,-1.6%,/,i
CC(=O)Nc1cccc(NC(=O)c2c(-c3ccccc3)noc2C)c1,3.1%,-0.4,i
CCCc1nnc(NC(=O)CN2CCOCC2)s1,-1.0%,-0.9,i
CS(=O)(=O)N(CCc1ccccc1)CC(=O)Nc1ccc2c(c1)OCO2,-1.3%,0.33,i
O=C(c1cccc(COCC(F)(F)C(F)F)c1)N1CCN(c2ccccc2)CC1,0.4%,0.62,i
CCOc1ccc(C2C(C#N)=C(N)N3C(=C2C#N)Sc2ccccc23)cc1 (stereo unspecified),5.8%,0.04,i
CCCCSc1nnc2c(n1)[nH]c1ccccc12,1.4%,/,i
Cn1c(SCC(=O)NCc2ccccc2)nnc1C1CC1,1.2%,-0.89,i
CC1=C(C(=O)OCc2ccccc2)C(c2ccco2)n2ncnc2N1 (stereo unspecified),6.9%,-0.68,i
Cn1c(=O)oc2cc(S(=O)(=O)N3CCN(c4ccccc4)CC3)ccc21,-6.5%,0.39,i
O=c1c2nnn(Cc3ccc(Cl)cc3)c2ncn1Cc1ccc(F)cc1,0.7%,0.19,i
O=C(Cn1cnc2c(nnn2Cc2ccccc2)c1=O)c1ccc(Cl)cc1,4.3%,-0.38,i
COc1ccc(Nc2cc(C(=O)NCCCN3CCN(C)CC3)c3ccccc3n2)c(OC)c1,0.9%,-0.39,i
O=C(NCCCN1CCCCCC1)C1CC(=O)N(C2CCCC2)C1 (stereo unspecified),-6.0%,0.88,i
CCSc1nc(-c2ccc(OC)cc2)cc(-c2ccc(OC)cc2)c1C#N,-3.2%,/,i
CCOC(=O)CCC(=O)Nc1ccc(S(=O)(=O)N2CCC(C)CC2)cc1,10%,/,i
COc1ccc(N2C(=O)CCC(C(=O)NCCN3CCOCC3)C2c2ccc(OC)c(OC)c2)cc1 (stereo unspecified),-3.7%,0.75,i
O=C(O)CC1(Cc2nc(-c3cccs3)no2)CCCC1,0.4%,-1.4,i
O=C(CCCn1c(SCC(=O)c2ccc(F)cc2)nc2ccccc2c1=O)NCc1ccco1,0.1%,1.2,i
CCCc1ncc(C(O)c2cccc3ccccc23)n1C (stereo unspecified),1.7%,-0.51,i
COc1ccc(CC(=O)NCc2ccccc2)cc1S(=O)(=O)N1CCOCC1,6.1%,0.44,i
Cc1ccc(-c2nnn(CC(=O)NCc3ccccc3)n2)c(-n2cnnn2)c1,1.0%,-0.11,i
Cc1ccc(C(=O)Nc2ccc(N3CCOCC3)cc2)cc1,0.2%,-0.24,i
O=C(Nc1nc(-c2ccccn2)cs1)c1ncc(Cl)c(Cl)c1Cl,-4.8%,/,i
Cc1ccccc1Nc1nc(N)nc(CN2CCN(c3ccccn3)CC2)n1,6.0%,0.6,i
COc1cc(CNCCSc2nnnn2C)cc(OC)c1OC,-4.6%,/,i
CCCc1cc(=O)n2[nH]c(NCc3c(Cl)cccc3Cl)nc2n1,-8.9%,-0.17,i
NC1=NC(=O)C2(COC(c3ccccc3Cl)OC2)S1 (stereo unspecified),0.1%,/,i
c1ccc(-n2nnnc2OCCOc2nnnn2-c2ccccc2)cc1,4.0%,0.1,i
CC1(C)SCC2C(=O)N3C(CSC3(C)C)C(=O)N21 (stereo unspecified),-0.4%,1.9,i
Cc1ccc(CSc2nnc(-c3cccs3)n2C)cc1,0.6%,-0.02,i
COC(=O)C1=NN(c2ccccc2)C2(S1)SC(C(C)=O)=C(C)N2c1ccccc1 (stereo unspecified),1.3%,/,i
COc1cccc(NC(=O)Cc2nnc(SCCOc3ccccc3)n2C)c1,-3.8%,2.3,i
CON(c1nc(Cl)nc(N(C)C)n1)S(=O)(=O)c1ccccc1Cl,-1.2%,/,i
COC(=O)c1ccc(/C=C(\C#N)c2nc3ccccc3s2)cc1,2.7%,/,i
Cc1ccccc1-n1c(SCc2cc(=O)n3ccccc3n2)nc2[nH]ncc2c1=O,5.6%,0.45,i
COc1cccc(-c2ccc(=O)n(CC(=O)Nc3ccc(C(=O)N4CCCC4)cc3)n2)c1,3.2%,/,i
COC(=O)CN1C(=O)CC(C)(C)S(=O)c2ccccc21 (stereo unspecified),4.0%,-0.59,i
CC(=O)c1cccc(NC(=O)c2ccc(N(C)S(C)(=O)=O)cc2)c1,0.3%,-1.3,i
Cc1ccc(SCC(=O)N2CC(C)OC(C)C2)cc1 (stereo unspecified),-2.3%,0.56,i
CCC(C)c1c(O)nc(SCC(=O)c2ccccc2)[nH]c1=O (stereo unspecified),1.9%,-1.1,i
CSc1ccc(Cn2nnc(C(=O)NCc3ccccc3)c2N)cc1,7.4%,0.49,i
CCC(=O)c1ccc(O)cc1,-0.9%,0.71,i
COc1ccc(-c2cc(-c3c(O)c(OC)c4occc4c3OC)[nH]n2)cc1OC,1.2%,-2.6,i
CCN(CC(=O)N1CCOCC1)S(=O)(=O)c1ccc(C)cc1,13%,-0.07,i
CCSc1nnc(NC(=O)NC(CC)(C(F)(F)F)C(F)(F)F)s1,0.7%,-0.59,i
COc1ccc(CN2CCN(c3cc(C)nc4c5c(C)cc(C)nc5nn34)CC2)cc1F,-10%,-0.95,i
Cn1cc(CNC(=O)C2c3ccccc3Oc3ccccc32)cn1,5.0%,0.78,i
CCN(CC)C(=O)C1CCCN(Cc2cccc(F)c2)C1 (stereo unspecified),2.9%,-0.83,i
CCOc1ccccc1NC(=O)CC1Nc2cc(C)c(C)cc2NC1=O (stereo unspecified),-6.6%,-0.04,i
COc1cccc(NC(=O)CNC(=O)c2ccccc2)c1,7.4%,0.18,i
CCc1cccc(NC(=O)c2snc3c(=O)[nH]cnc23)c1,-4.2%,1.3,i

# Reprinted from above (five entries):
SMILES,Hsc70 ATP site,WNV NS2B-NS3 inh,MT1-MMP reporter
COc1ccc(CC(=O)NCc2ccccc2)cc1S(=O)(=O)N1CCOCC1,6.1%,0.44,i
Cc1ccc(-c2nnn(CC(=O)NCc3ccccc3)n2)c(-n2cnnn2)c1,1.0%,-0.11,i
Cc1ccc(C(=O)Nc2ccc(N3CCOCC3)cc2)cc1,0.2%,-0.24,i
O=C(Nc1nc(-c2ccccn2)cs1)c1ncc(Cl)c(Cl)c1Cl,-4.8%,/,i
Cc1ccccc1Nc1nc(N)nc(CN2CCN(c3ccccn3)CC2)n1,6.0%,0.6,i

# The list continues:
SMILES,Hsc70 ATP site,WNV NS2B-NS3 inh,MT1-MMP reporter
O=C(NC1CCCCC1)c1ccc(CNc2ccccc2)o1,-4.6%,0.56,i
N/C(Cc1cccs1)=N\OC(=O)COc1ccc(Br)cc1,-5.1%,/,i
O=S(=O)(N1CCOCC1)n1nnc2ccccc21,-6.7%,1.6,i
Cc1cccc(-n2c(O)c(C=Nc3ccc4c(c3)OCO4)c3ccccc3c2=O)n1,-107%,-0.95,i
CC1(C)CC(=O)C2=C(C1)Nc1ccccc1NC2c1cccnc1 (stereo unspecified),-2.9%,0.83,i
Cc1c(NC(=O)c2cnn3c2NC(c2ccco2)CC3C(F)(F)F)c(=O)n(-c2ccccc2)n1C (stereo unspecified),1.7%,-1.1,i
CCCn1c(NCc2cccc(OC)c2O)nc2ccccc21,-7.1%,-2,i
CCC1(CC)NC(=O)N(CC(=O)OCC(=O)Nc2cc(C)ccc2C)C1=O,-4.6%,-0.85,i
CCOC(=O)N1CCN(C(=O)c2oc3ccc(S(=O)(=O)N4CCCCC4)cc3c2C)CC1,-6.1%,1.1,i
CCNC(=O)CSc1nnc(-c2cccc(S(=O)(=O)N(CC)CC)c2)n1CCc1ccccc1,-4.2%,/,i
COc1ccc(C2CC(c3cc(Br)ccc3F)n3nnnc3N2)cc1 (stereo unspecified),-10%,0.84,i
CC(C)C1N(c2ccccc2)C(N)=C(C#N)C1(C#N)C#N (stereo unspecified),3.1%,0.03,i
Cc1ccc(S(=O)(=O)N(C)CC(=O)O/N=C(\N)c2cccc([N+](=O)[O-])c2)cc1,2.1%,/,i
COC(=O)c1ccc(C)c(NC(=O)c2c(-c3ccccc3)noc2C)c1,8.2%,1.2,i
c1coc(CNc2nc3sc4c(c3c3ncnn23)CCCC4)c1,-2.6%,-0.02,i
COc1ccc(NC(=O)c2cc(C3CC3)on2)c(OC)c1,-0.8%,1.6,i
O=C(CSc1ncccn1)Nc1ccccc1,1.5%,0.65,i
CCS(=O)(=O)NCc1csc(-c2ccccc2)n1,0.4%,-0.21,i
COc1cccc(Cn2nnc(C(=O)NCc3ccccc3Cl)c2N)c1,-0.9%,-1,i
OC(COCC1CC=CCC1)Cn1cnc2ccccc21 (stereo unspecified),-3.1%,-1.7,i
CC(=O)N1CSCC1C(=O)O (stereo unspecified),-7.9%,-5.2*,i
Cc1ccc2c(c1)NCC(C(=O)NC1CCCCC1)O2 (stereo unspecified),1.0%,-0.31,i
O=C(Cc1cccs1)N1CCN(C(=O)C2CCCO2)CC1 (stereo unspecified),3.0%,-0.93,i
O=C(NCCc1cn2ccsc2n1)C1CCCCC1,2.2%,-1.4,i
Cc1cccc(C)c1NC(=O)C(NC=O)c1ccc(N(C)C)cc1 (stereo unspecified),2.8%,-0.22,i
CC(=O)c1c(N2CCC(C(N)=O)CC2)nc(=S)n(-c2ccccc2)c1C,-0.7%,/,i
CCOC(=O)NC(Nc1nc2ccccc2s1)(C(=O)OCC)C(F)(F)F (stereo unspecified),-4.8%,-0.19,i
Cc1ccc(-c2nnc(SCC(=O)CC(=O)Nc3ccccc3)n2C)cc1,-2.2%,/,i
CCOC(=O)c1nn(-c2ccccc2)c(=O)c2c(N)scc12,-1.8%,1.7,i
Cc1cc(C(F)F)n2nc(C(=O)Nc3ccc(S(=O)(=O)N4CCCC4)cc3)nc2n1,2.9%,-0.53,i
COc1ccc(C2C(C(=O)Nc3cccnc3)=C(C)Nc3nc(-c4cccs4)nn32)cc1OC (stereo unspecified),3.0%,-0.11,i
C/C(=N\NS(C)(=O)=O)c1ccccc1,1.6%,/,i
O=C1[C@@H]2Cc3ccccc3CN2C(=O)N1c1cccc(F)c1,1.0%,1.5,i

# Three of the compounds above, with two lines to a compound:
# Each structure is followed by: Hsc70 ATP site, WNV NS2B-NS3 inh, MT1-MMP reporter
- CCOC(=O)c1nn(-c2ccccc2)c(=O)c2c(N)scc12
→ -1.8%, 1.7, i
- Cc1cc(C(F)F)n2nc(C(=O)Nc3ccc(S(=O)(=O)N4CCCC4)cc3)nc2n1
→ 2.9%, -0.53, i
- COc1ccc(C2C(C(=O)Nc3cccnc3)=C(C)Nc3nc(-c4cccs4)nn32)cc1OC (stereo unspecified)
→ 3.0%, -0.11, i

# An excerpt; rates above refer to the full screens.
